# Source: PubChem (several laboratories)
# RanGTP-Impb inh = inhibitors of RanGTP-importin-beta interaction, primary screen, biochemical, FRET, CFP-Ran, YFP-importin-beta, homogeneous; cell-free CFP-Ran/YFP-importin-beta FRET ratio; inhibition, % (test concentration not listed); actives 1.1% (n = 300,000); AID 2216;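 active = most replicates above 15%; inconclusive = exactly half above 15%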;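 also: 0% = DMSO wells and 100% = Ran loaded with GDP instead of GTP; wells of about 40 µL received 100 nL stock; the first replicate is given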
# LANA-H2A inh = blocks KSHV LANA binding to histone H2A/H2B; cell-free LANA-H2A/H2B peptide, fluorescence polarization; actives 0.6% (n = 320,000); inhibition, % (test concentration not listed); Q9QR71; in the data active = inhibition mostly above about 10%, no sharp cut-off; inactive = mostly below about 6.7%;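 also: stock transfer was 7.5 nL into about 10 µL; 0% = median of vehicle wells and 100% = median of positive control wells; one replicate is shown; the record names a cut of 25% in any replicate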
# Target sequence (Q9QR71 whole entry, looked up): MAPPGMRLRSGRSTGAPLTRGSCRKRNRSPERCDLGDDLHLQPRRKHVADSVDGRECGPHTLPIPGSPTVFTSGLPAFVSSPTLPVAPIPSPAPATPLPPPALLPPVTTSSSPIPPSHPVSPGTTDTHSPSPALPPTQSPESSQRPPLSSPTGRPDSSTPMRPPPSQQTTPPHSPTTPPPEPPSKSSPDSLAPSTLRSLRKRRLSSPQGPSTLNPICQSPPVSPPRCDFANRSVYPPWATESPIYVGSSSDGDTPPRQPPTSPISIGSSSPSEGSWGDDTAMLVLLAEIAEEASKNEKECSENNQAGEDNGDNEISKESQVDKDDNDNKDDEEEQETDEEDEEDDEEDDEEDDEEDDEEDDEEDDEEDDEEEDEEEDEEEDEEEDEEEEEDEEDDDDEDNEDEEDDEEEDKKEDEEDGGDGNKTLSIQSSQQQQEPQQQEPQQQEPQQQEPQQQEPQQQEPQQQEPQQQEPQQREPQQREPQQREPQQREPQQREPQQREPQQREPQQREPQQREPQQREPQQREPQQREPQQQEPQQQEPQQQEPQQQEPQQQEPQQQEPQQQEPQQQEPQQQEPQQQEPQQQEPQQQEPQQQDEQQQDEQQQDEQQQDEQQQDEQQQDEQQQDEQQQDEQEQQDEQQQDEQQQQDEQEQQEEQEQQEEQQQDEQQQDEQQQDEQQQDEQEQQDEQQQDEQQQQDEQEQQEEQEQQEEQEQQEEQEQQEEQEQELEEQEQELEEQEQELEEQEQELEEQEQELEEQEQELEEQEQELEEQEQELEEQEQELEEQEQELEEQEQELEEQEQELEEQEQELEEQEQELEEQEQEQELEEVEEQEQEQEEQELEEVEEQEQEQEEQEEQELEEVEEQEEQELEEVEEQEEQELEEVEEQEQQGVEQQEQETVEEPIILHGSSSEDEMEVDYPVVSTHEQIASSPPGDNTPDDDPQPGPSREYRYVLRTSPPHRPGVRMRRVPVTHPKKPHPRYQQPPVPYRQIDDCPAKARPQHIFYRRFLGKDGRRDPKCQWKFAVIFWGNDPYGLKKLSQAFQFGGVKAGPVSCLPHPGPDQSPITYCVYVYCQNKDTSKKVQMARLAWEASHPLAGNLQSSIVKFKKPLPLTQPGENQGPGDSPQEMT
# AF4-AF9 inh = inhibitors of human MLL-AF4/AF9 interaction | P42568 | AlphaScreen, biotin-AF4 peptide binding to FLAG-AF9 | actives 0.47% (n = 350,000) | AID 651704 | inhibition, % at 10 µM;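 active = every replicate reaching a set inhibition limit, whatever the replicate mean, cut at about 25% in these data; inconclusive = mean inhibition reaches that limit but some replicates miss it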;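 also: 0% = plate neutral control median and 100% = total signal loss; the record names both 10 and 1 µM as test concentration; the first replicate is given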
# Vif A3G = inhibitors of Vif binding to APOBEC3G peptide, primary screen, biochemical, TR-FRET, GST-Vif 1-94, biotin-A3G peptide, dose response retest (AID 1117319). TR-FRET GST-Vif / biotin-A3G peptide binding; higher % means a stronger effect; test concentration not given here; strong numbers were not always called active. one-dose inhibition, %; IC50 in µM for titrated hits. actives 0.57% (n = 260,000);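 active = above the screen mean plus three standard deviations and confirmed in dose response; inconclusive = results disagree or hit not tested in dose response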;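 also: Vif residues 1-94 fused to GST binding biotinylated APOBEC3G peptide 110-148; 0% = full assay without inhibitor and 100% = GST in place of GST-Vif; retest series ran down from 100 µM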
# T cruzi inh = blocks replication of Trypanosoma cruzi | actives 1.4% (n = 300,000) | inhibition, % (no concentration beside the values) | T. cruzi beta-gal in NIH3T3, luminescence, 90 h;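 active = mean inhibition across valid replicates above about 55%, limit read from the data; inconclusive = mean below that limit but half or more replicates reach it; inactive = mean below it, under half of replicates reach it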;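 also: signal also drops with host cell toxicity which is not excluded here; 0% = plate median of DMSO wells and 100% = zero luminescence signal; higher percent means less beta-gal luminescence so fewer parasites; stock transfer was 50 nL into about 50 µL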
# A1 inh = inhibitors of the anti-apoptotic protein A1, read as caspase activation | MEF A1-2A-BIM cells, Caspase-Glo 3/7 luminescence, 3 h; percent of clofoctol response, vehicle zero | caspase activation, % (test concentration not listed) | actives 0.066% (n = 330,000) | AID 2462;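 active = over half of replicate activation scores above 10%, or exactly half above 10 with the replicate mean above 10; inconclusive = replicate mean below 10 yet half the replicates above 10; inactive = over half of replicates below 10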;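 also: wells of about 30 µL received 50 nL stock; many hits fall short of the cut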
# Calb FLC = affects C. albicans growth with fluconazole; C. albicans CaCi-2 (fluconazole-resistant clinical isolate) + fluconazole, Alamar Blue growth, 48 h; growth inhibition, % (no concentration beside the values); actives 0.57% (n = 300,000);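 active = most replicates above 75%; inconclusive = exactly half above 75%; inactive = most below 75%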;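 also: all wells also contain fluconazole at 8 µg/ml as a sub-toxic cotreatment; 0% = median of DMSO wells and 100% = median of geldanamycin control wells; wells of about 8 µL received 7.5 nL stock; the first replicate is given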
# Beta apoptosis = blocks beta cell apoptosis; INS-1E cytokine-induced death, ATP luminescence, 48 h; percent of positive-control rescue, neutral wells zero; protection from apoptosis, % (concentration not given with the values); actives 0.8% (n = 300,000);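 active = all replicates at 75% or more, or half of them and the mean; inconclusive = half reach 75% but not the mean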;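 also: 0% = cytokine-treated negative control wells and 100% = positive control rescue; higher means more ATP so stronger rescue from cytokine killing; wells of about 40 µL received 100 nL stock; the first replicate is given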
# * = called active by the depositor; ? = inconclusive; / = no result given; & = joins results of further samples. Not a hit list. Share with any hit: about 4.3%.
SMILES,RanGTP-Impb inh,LANA-H2A inh,AF4-AF9 inh,Vif A3G,T cruzi inh,A1 inh,Calb FLC,Beta apoptosis
CCN1CCN(S(=O)(=O)c2ccc(S(=O)(=O)NCC3CCCO3)cc2)CC1 (stereo not given),-3.5,0.9,4.9,10%&0%,0,-0.5,-6,-5
Cc1cc(C)n(C(=O)COc2ccc(Cl)cc2Cl)n1,-0.6,-0.8,/,-5%,19,-0.4,2,-3
CCOc1ccc(C(=O)C2CCN(C(=O)c3ccccc3C(=O)O)CC2)cc1,4.4,3.9,/,-3%,0,0.2,24,7
Cc1ccc(NC(=S)NCCCN2CCOCC2)cc1C,2.7,1.1,3.0,/,-16,0.0,-7,-9
CCCCn1c(N)c(N(CC(C)C)C(=O)Cn2c(=O)cnc3ccccc32)c(=O)[nH]c1=O,5.0,1.6,-11,17%,-10,-0.3,/,-2
Cc1cc(N2C(=O)C(O)=C(C(=O)c3ccc(C)o3)C2c2cccc(Oc3ccccc3)c2)no1 (stereo not given),1.1,-2.4,1.8,/,6,-0.3,56,4
Cc1cccc(Nc2nnc(SCC(=O)c3ccc(Br)s3)s2)c1C,0.6,-2.2,3.3,18%,29,0.3,-1,3
C=CC[C@@H](CC(=O)N[C@H](CO)Cc1ccccc1)C(=O)N[C@H](COC(=O)[C@@H](CC=C)Cc1ccc(F)cc1)Cc1c[nH]c2ccccc12,/,8.8,-4.1,/,/,-0.2,/,30
O=C(CCCc1ccccc1)NC1CC1,-0.2,4.4,/,-5%,-10,0.2,12,-4
O=C(/C=C/c1ccccc1[N+](=O)[O-])NCCCN1CCCC1=O,-0.6,-1.1,3.2,/,-7,0.0,-13,-7
CCN(CC)c1ccc(C=Nc2cccc(S(=O)(=O)N3CCOCC3)c2)c(O)c1,/,2.6,1.4,/,/,0.3,/,-4
O=C(O)C1C2C=CC(C2)C1C(=O)NCCc1cccc(Cl)c1 (stereo not given),1.5,2.2,/,14%,-1,-0.3,16,-6
CCCCCC(=O)Nc1cccc(C2=NOC3(C2)C[C@@H](C(N)=O)N(C(=O)c2cc([N+](=O)[O-])cc([N+](=O)[O-])c2C)C3)c1 (stereo not given in full),1.0,2.0,5.8,/,38,?,27,-10
CC(C)(C)OC(=O)N1CCC(c2c(C(=O)O)cnn2-c2ccc(Cl)cc2)CC1,8.1,5.1,/,7%,-15,0.3,41,7
O=C(NCc1ccc(F)cc1)C(c1cccnc1)N(C(=O)c1csnn1)c1ccccc1 (stereo not given),1.7,-0.7,1.0,-9%,2,0.6,-7,-2
CCCSc1nnc(-c2ccccc2N)c(=O)[nH]1,8.7,1.9,/,0%,-3,-0.9,8,-3
CCc1ccccc1NC(=O)COC(=O)c1c(C)nsc1NC,/,-3.1,-1.4,-2%,/,0.3,/,73
CC(=O)c1c(C)[nH]c(C(=O)OCC(=O)N2CC(C)OC(C)C2)c1C (stereo not given),/,-1.5,1.4,-6%,-6,0.2,1,-7
Cc1ccc(C)c(N(CC(=O)NCc2ccco2)C(=O)CCC(=O)Nc2ccccn2)c1,1.2,/,/,13%,-1,/,-13,/
COC(=O)C1CCN(CC(=O)NC(=O)NC2CCCCC2)CC1,-3.1,2.5,-0.2,?,10,0.5,-4,-1
O=C1CN(C(=O)NCC(=O)N[C@H](C(=O)O)c2ccccc2)c2ccccc2N1,7.2,0.0,2.0,/,-1,-0.4,/,3
CCOc1ccc(-c2nnc(-c3ccncc3)o2)cc1,5.6,-6.5,/,1%,8,-5.7,13,/
CCCCOC(=O)CCCN1C(=O)/C(=C2\SC(=S)N(CCCC(=O)OCCCC)C2=O)SC1=S,-3.5,0.8,-0.3,88%,7,-0.5,-2,-7
CC(C)n1cc(CN2CCN(C)C(CCO)C2)c2ccccc21 (stereo not given),3.2,1.9,4.9,/,59*,-0.1,-29,-5
COc1ccc2[nH]c(=O)c(CN(Cc3nnnn3Cc3ccc(F)cc3)CC3CCCO3)cc2c1 (stereo not given),-2.7,0.5,/,7%,7,-0.9,0,-7

# Next section (three carried over from the part before).
SMILES,RanGTP-Impb inh,LANA-H2A inh,AF4-AF9 inh,Vif A3G,T cruzi inh,A1 inh,Calb FLC,Beta apoptosis
CCCCOC(=O)CCCN1C(=O)/C(=C2\SC(=S)N(CCCC(=O)OCCCC)C2=O)SC1=S,-3.5,0.8,-0.3,88%,7,-0.5,-2,-7
CC(C)n1cc(CN2CCN(C)C(CCO)C2)c2ccccc21 (stereo not given),3.2,1.9,4.9,/,59*,-0.1,-29,-5
COc1ccc2[nH]c(=O)c(CN(Cc3nnnn3Cc3ccc(F)cc3)CC3CCCO3)cc2c1 (stereo not given),-2.7,0.5,/,7%,7,-0.9,0,-7
COc1ccc(-c2c(C)[nH]n3c(=O)c(Cc4ccccc4)c(C)nc23)cc1,0.0,2.7,-11,/,10,0.5,11,31
C=C(C)c1cccc(C(C)(C)NC(=O)N2CCN(C/C=C/c3ccccc3)CC2)c1,-1.2,4.4,/,-7%,19,0.4,-1,0
Cc1ccccc1C(=O)NC(=S)NCc1cccnc1,0.8,2.2,-9.3,3%,-10,0.4,24,1
COc1ccccc1CNc1ncccc1[N+](=O)[O-],5.2,-1.3,3.4,-6%,-2,-1.1,-1,-2
O=c1[nH]c(=O)n(Cc2ccccc2)c2nc(-c3ccc(Oc4ccc(F)cc4)c([N+](=O)[O-])c3)n(CCO)c12,-1.0,-3.2,11,/,14,-0.5,2,69
CC(=O)Nc1ccc(S(=O)(=O)N(C)CC(=O)OCC(=O)N(C)C2CCS(=O)(=O)C2)cc1 (stereo not given),0.0,-3.6,-3.5,0%,-9,0.2,-2,1
CC(C)c1c(O)nc(SCCC(=O)O)[nH]c1=O,2.0,-3.3,/,3%,4,0.6,0,/
Cc1ccccc1NC(=O)n1ncc2cc(Cl)ccc21,1.9,10,0.3,-4%,-5,-0.1,-3,-6
O=Cc1c(Sc2ccccn2)nc2ccccn2c1=O,-3.6,-2.9,/,3%,7,0.9,-7,-15
O=C(O)c1ccc(N2CCCCS2(=O)=O)cc1,?,-1.1,-0.5,8%,-4,1.6,5,-1
COc1cc(SC)ccc1C(=O)NCCNC(=O)c1nonc1N,0.7,5.5,1.0,/,14,-0.1,26,-8
COc1ccc(C(=O)O/N=C(\N)c2ccccc2)c(OC)c1,/,-6.6,-6.3,3%,27,-6.1,/,11
O=C1NN(c2cccc(Br)c2)C(=O)/C1=C/c1cccs1,-5.3,1.4,/,/,-14,-0.4,-6,-4
CCCCCCCn1c(=N)n(CC(O)c2ccco2)c2ccccc21 (stereo not given),0.8,-1.4,11,/,28,0.0,-3,7
COc1ccc(S(=O)(=O)N2CCOCC2)cc1NC(=O)Cc1coc2cc(C)c(C)cc12,4.0,2.5,2.4,-6%,18,-0.6,?,-4
COc1cc(CN(C(=O)c2ccco2)c2ccc(C)cc2)ccc1O,0.8,3.3,/,?,1,0.2,21,-4
O=C(Cc1cccc2ccccc12)Nc1ccc(OC(F)F)c(Cl)c1,2.4,-0.4,-1.3,6%,29,1.0,-21,-10
CCC1CCCCN1Cc1cc(OC)c(O)c([N+](=O)[O-])c1 (stereo not given),-3.7,0.0,/,3%,0,-0.8,-8,5
O=C1NN(c2ccccc2)C(=O)/C1=C\c1ccc(-c2cc([N+](=O)[O-])ccc2O)o1,-3.0,/,4.9,-3%,1,/,-40,/
C=CCn1c(SCC(=O)Nc2ccc(F)cc2)nc2cc(C(=O)O)ccc2c1=O,-0.4,-2.0,0.1,4%,-4,0.1,-3,1
Cc1cc(Cl)c(OCCCNCc2ccccc2)c(Br)c1,1.6,-1.4,/,-2%,56*,1.4,-26,13
Cc1ccccc1NC1=NS(=O)(=O)c2ccccc21,-4.4,0.3,/,-3%,7,-0.5,1,2
Cc1ccc(C)c(N=Nc2ccc(O)c3ncccc23)c1,2.4,-2.6,/,7%,31,-0.3,108*,88*
O=c1oc2c(CN3CCOCC3)c(O)ccc2c2c1CCCC2,33*,4.3,/,9%,-18,-1.4,9,-2
COc1cc(CC(=O)NCC2COc3ccccc3O2)cc(OC)c1OC (stereo not given),4.1,-6.4,-1.1,30%,10,0.9,0,-4

# (next part)
SMILES,RanGTP-Impb inh,LANA-H2A inh,AF4-AF9 inh,Vif A3G,T cruzi inh,A1 inh,Calb FLC,Beta apoptosis
COCCNC(=O)Cn1cc(/C=C(\C#N)C(=O)NC2CCCC2)c2ccccc21,52*,-1.4,-5.6,-6%,3,0.0,-9,/
Cc1cccc(C(=O)NCC(=O)OCC(=O)N2CCN(S(=O)(=O)c3ccc(C)cc3C)CC2)c1,/,-1.5,-21,/,/,1.1,/,-3
O=[N+]([O-])c1ccccc1/C=C/C=N/n1c(-c2ccco2)n[nH]c1=S,-0.9,0.7,2.2,/,10,-0.6,-12,-6
Cc1cc(NC(=O)CSc2cc(C)c3ccccc3n2)no1,/,-4.6,0.3,-1%,/,0.3,/,1
CCc1ccc(NC(=O)c2ccc(OC)c([N+](=O)[O-])c2)cc1,-2.8,-1.1,/,27%,13,-0.6,0,-1
C=CCSc1nnc(N2C(=O)C(O)=C(C(=O)c3ccco3)C2c2ccc(F)cc2)s1 (stereo not given),-14,3.4,-2.9,-12%,-29,-1.8,-4,-2
COCCCNC(=O)CC(=O)N/N=C\c1ccc(SC)cc1,3.1,2.5,-0.2,1%,-15,0.1,1,-9
CCCCCn1c(SCC#N)nc2cc(C(=O)NCC3CCCO3)ccc2c1=O (stereo not given),1.3,0.2,/,?,8,0.5,-3,3
Cc1c(Cl)cccc1NC(=S)NCc1ccco1,-1.7,1.8,4.8,9%,-12,1.6,3,-6
COc1cc(CNC2CCC(C)C2)cc(OC)c1 (stereo not given),1.3,2.5,/,-4%,-14,-0.3,-38,-7
CCN(CC)C(=O)CSc1nnc(-c2ccncc2)n1N,-0.6,-1.6,/,10%,-11,-0.1,33,-3
Cc1nc2ccccc2c(C)c1CC(=O)N(CC(C)C)c1c(N)n(Cc2ccccc2)c(=O)[nH]c1=O,1.7,0.0,0.3,2%,14,0.4,-1,-1
CC1CN(C)C(c2ccccc2)C(C)C12NC(=O)NC2=O (stereo not given),0.4,-3.3,/,14%,-11,-0.1,5,1
CCOc1ccc(Br)cc1S(=O)(=O)N1CCCN(C)CC1,3.7,3.2,0.3,-2%,-2,0.8,-4,2
COc1ccc(CN2CCN(Cc3cn(C)nc3-c3ccccc3)CC2CCO)c(C)c1C (stereo not given),-3.5,-5.2,1.9,-6%,29,0.8,-15,-4
Cc1cccc(C(=O)Nc2nnc(SCC(=O)Nc3ccc4c(c3)oc3ccccc34)s2)c1,4.7,-2.2,-3.8,-6%,-9,-3.3,2,-1

# Ordered by molecular weight (ascending): part of the list above.
SMILES,RanGTP-Impb inh,LANA-H2A inh,AF4-AF9 inh,Vif A3G,T cruzi inh,A1 inh,Calb FLC,Beta apoptosis
Cc1cc(NC(=O)CSc2cc(C)c3ccccc3n2)no1,/,-4.6,0.3,-1%,/,0.3,/,1
COCCCNC(=O)CC(=O)N/N=C\c1ccc(SC)cc1,3.1,2.5,-0.2,1%,-15,0.1,1,-9
C=CCSc1nnc(N2C(=O)C(O)=C(C(=O)c3ccco3)C2c2ccc(F)cc2)s1 (stereo not given),-14,3.4,-2.9,-12%,-29,-1.8,-4,-2
